Assay outcomes as filed in PubChem BioAssay.
eIF4H FP inh – inhibitors of RNA binding by human eIF4H. Q15056. eIF4H fluorescence polarization binding assay. inhibition, % at 35 µM. 290,000 tested, 0.94% active. AID 2012;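 active means 50% or more with normal probe brightness, or confirmed in later tests; inconclusive means above 50% with abnormal brightness, or retests that disagree; inactive means below 50% or failed in later tests; about a fifth of its hits are not listed in these tables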;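 further: calls also rest on retests at 20 µM and on dose response follow-up; 0% = protein and probe with vehicle and 100% = probe without protein; strong numbers were not always called active; many hits fall short of the cut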
CSC inhib – blocks cancer stem cells; AID 2717; inhibition, % at 7.5 µM; 300,000 tested, 1.1% active; cancer stem cell-like cells viability, luminescence;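 active means mean at 75% or more and at least half the replicates too; inconclusive means mean and replicates disagree; tested in HMLE shEcad cells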;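 further: 0% = median of negative and 100% = median of positive control wells; the first replicate is given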
MT1-MMP act inh – MT1-MMP (human) activation inhibition; HT1080 RFP-PRO-GFP cells, GFP/RFP ratio fluorescence, overnight; percent of plate control window, DMSO zero; GFP/RFP ratio change, % at 20 µM; 360,000 tested, 0.061% active;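 active means GFP/RFP ratio change of at least 30% with cell ATP level not reduced by more than half and red fluorescence within 50% of control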; further: strong numbers were not always called active
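Assay system: HT1080 RFP-PRO-GFP cells. Benchmarks: DMSO vehicle wells and RFP-L50D-GFP reporter cell wells. Times: overnight cell settling, then overnight compound exposure, 37 °C, 5% CO2. Compound: 20 µM single dose, 1% DMSO. Read-out basis: GFP/RFP fluorescence ratio.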
PABP polyA inh – PABP-poly(A) binding inhibition | P11940 | PABP-poly(A) RNA binding, fluorescence polarization | inhibition, % at 35 µM | 290,000 tested, 1% active;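 active means 50% or more with normal probe brightness, or confirmed in later tests; inconclusive means above 50% with abnormal brightness, or retests that disagree; inactive means below 50% or failed in later tests; about a fifth of its hits are not listed in these tables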;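 further: calls also rest on retests at 20 µM and on dose response follow-up; controls were probe without protein and protein plus probe with vehicle; some compounds called inactive have numbers as strong as hits; many hits fall short of the cut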
Target sequence (P11940 whole entry, looked up): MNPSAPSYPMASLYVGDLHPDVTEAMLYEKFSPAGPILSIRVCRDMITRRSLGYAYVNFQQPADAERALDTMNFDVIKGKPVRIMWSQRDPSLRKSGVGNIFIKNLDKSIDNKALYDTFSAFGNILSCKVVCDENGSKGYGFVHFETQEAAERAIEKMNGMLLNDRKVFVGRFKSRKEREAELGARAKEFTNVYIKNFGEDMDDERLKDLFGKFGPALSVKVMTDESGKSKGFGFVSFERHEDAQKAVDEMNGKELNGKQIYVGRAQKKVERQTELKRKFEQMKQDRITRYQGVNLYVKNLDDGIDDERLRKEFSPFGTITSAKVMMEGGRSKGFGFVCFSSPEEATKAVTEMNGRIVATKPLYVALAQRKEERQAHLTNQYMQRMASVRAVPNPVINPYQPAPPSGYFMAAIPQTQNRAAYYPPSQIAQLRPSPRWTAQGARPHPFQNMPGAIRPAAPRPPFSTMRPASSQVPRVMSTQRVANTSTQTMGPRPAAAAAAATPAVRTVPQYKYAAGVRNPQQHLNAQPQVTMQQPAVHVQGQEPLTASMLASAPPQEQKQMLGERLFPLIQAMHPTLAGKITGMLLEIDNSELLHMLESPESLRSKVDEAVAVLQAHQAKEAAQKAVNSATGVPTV
Rce1 inhib – yeast Ras-converting enzyme inhibition; Q03530; yeast membranes, quenched prenylated peptide cleavage fluorescence; calls only; 290,000 tested, 0.27% active; AID 2563;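 active means fall in fluorescence gain of 50% or more versus controls, with final raw signal at or below 3038400; inconclusive means same 50% fall but final raw signal above 3038400; inactive means fall in fluorescence gain under 50%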;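 further: plate controls were neutral control wells for no effect and wells lacking membranes for full effect; tested at 10 µM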
Target sequence (Q03530 whole entry, looked up): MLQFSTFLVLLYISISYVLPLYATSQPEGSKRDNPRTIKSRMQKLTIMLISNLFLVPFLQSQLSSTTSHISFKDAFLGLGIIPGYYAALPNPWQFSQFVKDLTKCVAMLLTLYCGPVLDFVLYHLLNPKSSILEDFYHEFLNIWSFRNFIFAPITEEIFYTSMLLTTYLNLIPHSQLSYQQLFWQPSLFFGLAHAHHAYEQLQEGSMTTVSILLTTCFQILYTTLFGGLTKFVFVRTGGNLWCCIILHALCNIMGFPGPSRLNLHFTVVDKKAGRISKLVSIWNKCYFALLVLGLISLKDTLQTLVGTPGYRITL
HIV Env fusion – blocks HIV Env-driven cell-cell fusion; HeLa-JRFL Env/CEM21 cell fusion, luciferase; inhibition, % at 12.3 µM; 360,000 tested, 1.1% active;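 active means mean replicate inhibition score of at least 50 and every replicate individually at or above 50; inconclusive means only one of the two criteria met; inactive means mean below 50 and not all replicates reaching 50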;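 further: 0% = plate neutral controls and 100% = maraviroc near 300 nM; one replicate is shown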
Yeast UUG start – alters start codon recognition fidelity in yeast. S. cerevisiae UUG-firefly luciferase reporter, luminescence/redox ratio. 350,000 tested, 0.13% active. activity score, % at 18.7 µM;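 active means replicate mean at a twofold rise or more, about +100% in these data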;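 further: firefly luciferase made from a UUG start codon reports start codon fidelity; reporter light over untreated wells divided by growth signal over untreated wells; some hits fall short of that in this replicate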
eIF4H FP inh retest – recorded beside eIF4H FP inh, whose call it bears; inhibition, %; compound at 20 µM; confirmation average;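 mean of two retest wells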
PABP polyA inh retest – second read-out of PABP polyA inh, no call of its own (marks repeat the call); inhibition, %; compound at 20 µM; confirmation repeats;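 mean of two retest wells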
MT1-MMP act inh RFP – also measured in MT1-MMP act inh; calls as there; RFP signal change, %; measured here: RFP expression control read;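 0 = vehicle wells; hits needed this value within 50% of zero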
* = called active by the depositor; i = inactive; ? = inconclusive; / = no result given; & = joins results of further samples; [ ] = remark or other dose.

SMILES | eIF4H FP inh | CSC inhib | MT1-MMP act inh | MT1-MMP act inh RFP | PABP polyA inh | Rce1 inhib | HIV Env fusion | Yeast UUG start | others
CCCCN(C(=O)COC(=O)CSc1ccc([N+](=O)[O-])cc1)c1c(N)n(CCC)c(=O)[nH]c1=O | / | 1 | -1 | -4 | / | i | 2 | /
Cc1nnc(SCCn2c(N3CCN(C)CC3)nc3c2c(=O)[nH]c(=O)n3C)s1 | -5 | -10 | -4 | 3 | 4 | i | -63 | -9
CC1CCC(NC(=O)CCS(=O)(=O)c2ccc3c(c2)CC(C)N3C(=O)C2CC2)CC1 (stereo unspecified) | -13 | 14 | 1 | 2 | -1 | i | 11 | -15
N#C/C(=C\c1ccc(OCc2ccc(F)cc2)cc1)C(=O)Nc1cccc(C(=O)O)c1 | 33 | 14 | -2 | -5 | 0 | i | -73 | -6
CCCn1c(SCC(=O)Nc2ccc(C(=O)Nc3ccccc3OC)cc2)n[nH]c1=O | -6 | / | 5 | -8 | ? | i | -3 | 12
CCOc1ccc(NC(=O)N(CCCN2CCOCC2)Cc2cccnc2)cc1 | -6 | -4 | 1 | 0 | -9 | i | 7 | -12
O=C(Cn1cnc(S(=O)(=O)N2CCCC2)c1)Nc1ccc(OC(F)(F)F)cc1 | -10 | -9 | -4 | -7 | 3 | i | 1 | -7
O=C(Cn1cccc1)NCc1cccs1 | -3 | -8 | 3 | 5 | 3 | i | -79 | -7
CCOC(=O)C1(C)CCN1C(=O)c1ccc(OC)c(F)c1 (stereo unspecified) | / | / | -1 | 0 | / | / | 22 | -14
O=C(CCCOC(=O)c1ccc(O)cc1O)c1ccccc1 | / | -11 | -2 | -4 | / | / | / | -39
Cc1ccc(NCC(O)C(O)C(O)CO)cc1C (stereo unspecified) | -6 | -16 | -1 | 5 | -10 | i | -22 | -8
COc1cccc(-c2ncc3ccccc3c2COC(=O)c2cccs2)c1 | / | -1 | 0 | -3 | / | / | 18 | -11
Cc1ccc(S(=O)(=O)N(C)C)cc1NC(=O)C1CCC1 | -4 | 5 | 1 | 3 | 9 | i | -8 | /
CCc1cccc(C)c1NC(=S)N(CCN(C)C)C(C)c1cccnc1 (stereo unspecified) | -2 | -5 | -1 | 1 | 12 | i | 0 | -6
CCN(CC)c1ccc(/C=N/NC(=O)c2nnn(-c3nonc3N)c2C(C)C)c(O)c1 | -1 | 10 | 0 | -10 | -5 | i | 62* | 8
Cc1ccc(S(=O)(=O)NC(C)CCc2ccccc2)cc1 (stereo unspecified) | 0 | 8 | -2 | -2 | 1 | i | -22 | 8
Cc1ccc(/C=C/c2ccc3cccc(O)c3n2)s1 | 9 | 40 | 6 | 6 | -4 | i | -158 | -42
O=C(CN(C(=O)c1csnn1)c1ccc2c(c1)OCCO2)NCc1ccccc1 | -7 | 21 | -3 | 2 | -8 | i | -1 | -9
O=C(Nc1ccccc1Oc1cccnc1)C1CCCN(Cc2ccccc2O)C1 (stereo unspecified) | 4 | 1 | -1 | 5 | 7 | i | 3 | -17
CC1(c2nnc(Cc3ccccc3)o2)CC(c2ccc(C#N)cc2)=NO1 (stereo unspecified) | / | -8 | 2 | 0 | / | i | -1 | -13
Cc1oncc1-c1cn2ccccc2n1 | -1 | -2 | -1 | -1 | -11 | i | -29 | -10
CC1(C)Cc2nc3oc4c(N5CCOCC5)ncnc4c3cc2CO1 | -10 | 0 | 0 | 1 | -5 | / | -8 | -11
O=C(O)C1=C[C@@H](c2csc3ccccc23)C[C@@H](OCCCCO)O1 | 1 | -2 | -3 | 4 | 6 | i | 2[16.7 µM] | -6&-10
NC(=S)N=Nc1c(O)[nH]c2c(Br)cc(Br)cc12 | 38 | 14 | 0 | 5 | 17 | i | -8 | /
CCCCc1nnc(NC(=O)CCS(=O)(=O)Cc2ccccc2)s1 | 0 | -11 | -5 | 1 | 4 | i | 3 | -6

Next records
SMILES | eIF4H FP inh | CSC inhib | MT1-MMP act inh | MT1-MMP act inh RFP | PABP polyA inh | Rce1 inhib | HIV Env fusion | Yeast UUG start | others
O=C(Nc1ccc(Oc2ccccc2)cc1)C1CCN(c2ncccn2)CC1 | -3 | -11 | 6 | 6 | 1 | i | 5 | -4
Nc1nc2ccccc2n1/N=C/c1ccc(-c2ccccc2)o1 | 13 | 19 | -1 | 0 | 8 | i | -96 | -23
CCCC(C)C(=O)NCc1ccccc1OC (stereo unspecified) | -8 | 1 | 8 | 3 | -7 | i | 10 | 4
COc1cc2cc(CCO)oc(=O)c2cc1OC | / | -5 | 5 | 1 | / | / | 65* | -18
CCOC(=O)CSc1nc(C)cc(Oc2ccc(=O)n(C)n2)n1 | -4 | -7 | -3 | 5 | 10 | i | 7 | 2
COc1ccc(NC(=S)NC(=O)c2ccccc2)cn1 | 7 | / | 2 | 2 | 3 | i | -95 | -16
O=C1N=C(N2CCCC2)S/C1=C\c1cn[nH]c1-c1ccccc1 | -9 | -5 | / | / | 38 | i | / | /
CCSC1=N/C(=C\c2ccc3c(c2)OCO3)C(=O)S1 | -2 | 8 | -20 | -11 | 9 | i | / | 2
Cc1ccc(S(=O)(=O)N2CCOCC2)cc1NC(=O)CSc1nc2ccccc2c(=O)n1Cc1ccccc1 | -3 | / | -3 | -5 | 0 | i | -16 | -4
CC(=O)NCCc1cc2ccc(C)c(C)c2[nH]c1=O | -1 | -14 | 3 | 7 | -7 | i | -4 | -22
COc1ccc(Cl)cc1C(=O)NNC(=O)c1[nH]c(C)c(C(C)=O)c1C | / | -21 | 3 | 2 | / | / | 5 | /
O=S(=O)(Nc1ccccc1Br)c1cccs1 | -14 | 3 | -4 | -3 | -4 | i | -2 | -16
Cc1ccc(CNC(=O)CN(C)S(=O)(=O)c2cnc[nH]2)cc1 | 4 | 0 | -3 | 2 | 6 | i | -12 | -14
CN1CCN(c2ccccc2NC(=O)c2c(F)cccc2F)CC1 | -5 | -18 | 0 | 1 | 0 | i | -7 | /
O=C(Nc1ccccc1C(=O)NCCN1CCOCC1)c1cccc([N+](=O)[O-])c1 | -11 | 8 | 2 | -2 | 3 | i | / | 12
COc1ccc(C(C(=O)NC2CCCC2)N(Cc2cccnc2)C(=O)Cc2cccs2)cc1OC (stereo unspecified) | -11 | 9 | 0 | 3 | 2 | / | -2 | -17
COc1ccc(/C=C/C(=O)OCC(=O)NC2CCCC(C)C2C)cc1 (stereo unspecified) | / | 9 | 9 | 5 | / | / | / | -32
Cc1ccccc1NC(=O)C1CCCN(C(=O)Nc2ccc(F)cc2)C1 (stereo unspecified) | 4 | -10 | 1 | 6 | -1 | i | 0 | -12
Cc1ccc(NC2CCCN(C(=O)c3nonc3C)C2)cc1C (stereo unspecified) | / | / | -1 | 4 | / | / | -22 | -13
C/C(=N\NC(=O)c1nnn(-c2nonc2N)c1CSc1ccc(C)cc1)c1cccnc1 | / | / | 6 | 7 | / | / | 7 | -12
COc1cc2[nH]c(=S)n(CCN3CCOCC3)c(=O)c2cc1OC | 2 | 5 | -1 | 8 | 8 | i | -25 | -17
Cc1ccc(C)c(CSC2=NCCN2S(=O)(=O)c2ccccc2)c1 | -2 | -7 | -2 | -2 | 9 | i | 16 | -6
O=C(NC12CC3CC(CC(C3)C1)C2)C1CC(=O)N(c2ccc(Br)cc2)C1 (stereo unspecified) | 4 | 34 | 4 | -1 | -2 | i | / | -21
CCc1nc2ccc(C(=O)NCCCn3ccnc3)cn2c1N(C)CCCc1ccccc1 | / | / | -5 | 2 | / | / | 15 | -25
O=C(Cc1ccc(F)cc1)NCC1CCCO1 (stereo unspecified) | -4 | -9 | -2 | 5 | -3 | i | -13 | 1

The closing two records of the section before lead into the next.
SMILES | eIF4H FP inh | CSC inhib | MT1-MMP act inh | MT1-MMP act inh RFP | PABP polyA inh | Rce1 inhib | HIV Env fusion | Yeast UUG start | others
CCc1nc2ccc(C(=O)NCCCn3ccnc3)cn2c1N(C)CCCc1ccccc1 | / | / | -5 | 2 | / | / | 15 | -25
O=C(Cc1ccc(F)cc1)NCC1CCCO1 (stereo unspecified) | -4 | -9 | -2 | 5 | -3 | i | -13 | 1
O=C(c1ccc(Cl)c(Cl)c1)N1CCN(Cc2ccc3c(c2)OCO3)CC1 | -2 | -2 | 2 | -7 | 1 | i | 23 | -2
O=C(CN1C(=O)NC(Cc2ccccc2)C1=O)Nc1ccc(F)cc1 (stereo unspecified) | -19 | -2 | 0 | 1 | -8 | i | -44 | 6
CC1CCc2c(sc(NC(=O)CCc3nc4ccccc4c(=O)[nH]3)c2C#N)C1 (stereo unspecified) | / | 23 | -5 | 1 | / | / | -10 | -21
Cn1nnnc1Sc1ncnc2scc(-c3ccc(F)cc3)c12 | -1 | 35 | -24 | -22 | 0 | i | 83* | -21
CCN(CC)CCN(Cc1cc2cc3c(cc2[nH]c1=O)OCCO3)C(=O)NC1CCCCC1 | 0 | -10 | 0 | 8 | -3 | i | / | 4
CC(C)(O)C#Cc1ccc(C(=O)NCCc2ccc(S(N)(=O)=O)cc2)cc1 | 0 | -5 | -1 | 5 | 65 | i | -28 | / | eIF4H FP inh retest=-4;PABP polyA inh retest=3
CCOc1cc(/C=N/NC(=O)C(C)Sc2ccccc2)ccc1O (stereo unspecified) | -11 | -7 | -1 | -2 | 8 | i | -3 | /
Cc1ccc(C(=O)CSc2nc3ccccc3c(=O)[nH]2)cc1C | 3 | 6 | 2 | -1 | 5 | i | -15 | /
COc1ccc(OCc2cc(C(=O)NC3CCOCC3)no2)c2ccccc12 | 0 | 11 | 1 | 7 | -6 | i | 12 | /
COc1ccccc1N(C)S(=O)(=O)c1ccc(C(=O)OCC(=O)N2CCC2)cc1 | 4 | 2 | 2 | -8 | -66 | i | -17 | /
CC(=O)n1nc(-c2ccc(C)cc2)nc1NCc1ccco1 | -2 | / | 3 | 2 | 11 | i | -13 | /
COc1ccc2c(CC(=O)OCC(=O)Nc3ccc(S(N)(=O)=O)cc3)coc2c1 | 0 | 4 | 3 | 4 | 4 | i | -1 | -7
Cc1ccsc1C(=O)OCc1nc2ccsc2c(=O)[nH]1 | / | / | 1 | 5 | / | i | -51 | -11
COc1ccccc1N1CCN(CC(=O)NCC2CCCO2)CC1 (stereo unspecified) | 4 | -11 | 1 | -3 | 0 | i | / | -11
CC(=O)Nc1ccc(Nc2cc(C(C)C)nc3c(-c4ccccc4)c(C)nn23)cc1 | 1 | 84* | -5 | -9 | 12 | i | 20 | /
C=CCN(c1ccccc1)S(=O)(=O)c1cccc(C(=O)Nc2ncccc2C)c1 | / | -3 | -8 | -4 | / | i | 8 | -18
Cc1ccc2[nH]c(=O)c(CN(CC3CCCO3)C(=S)Nc3ccccc3)cc2c1 (stereo unspecified) | 4 | 11 | -10 | -8 | -3 | i | 1 | -21
O=C(O)c1ccccc1C(=O)c1ccc(Sc2ccc(Cl)cc2)c([N+](=O)[O-])c1 | 4 | 44 | 0 | 1 | 5 | i | -3 | 4
O=C(NC1CCC(O)CC1)c1ccc2c(c1)S(=O)(=O)N=C1CCCCCN12 (stereo unspecified) | / | -11 | -1 | 3 | / | i | 4 | -7
O=C(O)c1ccc(N2C(=O)/C(=C/C=C/c3ccccc3)SC2=S)cc1 | 7 | -1 | 8 | 10 | 1 | i | 6 | /
O=C(Nc1ccc(F)c(Cl)c1)NC1CC1 | 0 | -7 | 2 | 8 | -4 | i | -13 | /
CCOc1ccc(C(=O)NCc2ccc3c(c2)OCO3)cc1OCC | -6 | -8 | -1 | -2 | -7 | / | 1 | -11
